Screening results from PubChem.
LANA-H2B inh: blocks KSHV LANA binding to histone H2A/H2B; cell-free LANA-H2A/H2B peptide, fluorescence polarization; inhibition, % (no concentration beside the values); hit rate 0.6% among 320,000; AID 2629; in the data active means inhibition mostly above about 10%, no sharp cut-off; inactive means mostly below about 6.7%;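 further: stock transfer was 7.5 nL into about 10 µL; 0% = median of vehicle wells and 100% = median of positive control wells; one replicate is shown; the record names a cut of 25% in any replicate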
Calb FLC: C. albicans growth modulation with fluconazole; C. albicans CaCi-2 (fluconazole-resistant clinical isolate) + fluconazole, Alamar Blue growth, 48 h; growth inhibition, % (no concentration beside the values); hit rate 0.57% among 300,000; AID 1979;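 active means most replicates above 75%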;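 further: all wells also contain fluconazole at 8 µg/ml as a sub-toxic cotreatment; 0% = median of DMSO wells and 100% = median of geldanamycin control wells; wells of about 8 µL received 7.5 nL stock; the first replicate is given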
Ecoli rRNA inh: inhibits bacterial ribosomal RNA function over humanized ribosomes | E. coli WT GFP vs humanized-ribosome RFP mutants, fluorescence, 24 h; active compounds read low; DMSO median 0, no signal -100 | GFP signal change (wild-type ribosome), % (no concentration beside the values) | hit rate 1.6% among 350,000;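 active means significant combined selectivity score with lowered wild-type GFP, culture density cut under 30%, mutant RFP and density less affected; inactive means any of these conditions unmet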; further: one replicate is shown; some compounds called inactive have numbers as strong as hits
ALR inh: inhibitors of human sulfhydryl oxidase ALR. P55789. purified ALR, DTT oxidation, H2O2 HRP-luminol luminescence. inhibition, % (test concentration not listed). hit rate 3.8% among 290,000;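 active means mean and each replicate at 75% or more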;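 further: stock transfer was 7.5 nL into about 7.5 µL; 0% = neutral wells and 100% = wells with inactivated enzyme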
Target sequence (P55789 whole entry, looked up): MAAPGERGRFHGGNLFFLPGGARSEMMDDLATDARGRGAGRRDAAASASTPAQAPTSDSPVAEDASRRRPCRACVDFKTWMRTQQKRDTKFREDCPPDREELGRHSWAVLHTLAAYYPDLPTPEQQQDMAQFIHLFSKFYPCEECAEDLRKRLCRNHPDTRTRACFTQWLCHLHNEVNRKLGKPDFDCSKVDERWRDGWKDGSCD
Beta cell apopt: blocks beta cell apoptosis; INS-1E cytokine-induced death, ATP luminescence, 48 h; percent of positive-control rescue, neutral wells zero; protection from apoptosis, % (concentration not given with the values); hit rate 0.8% among 300,000;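 active means all replicates at 75% or more, or half of them and the mean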;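 further: 0% = cytokine-treated negative control wells and 100% = positive control rescue; higher means more ATP so stronger rescue from cytokine killing; wells of about 40 µL received 100 nL stock; the first replicate is given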
T cruzi repl: T. cruzi replication inhibition; AID 1885; hit rate 1.4% among 300,000; inhibition, % (test concentration not listed); T. cruzi beta-gal in NIH3T3, luminescence, 90 h;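 active means mean inhibition across valid replicates above about 55%, limit read from the data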;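 further: signal also drops with host cell toxicity which is not excluded here; 0% = plate median of DMSO wells and 100% = zero luminescence signal; higher percent means less beta-gal luminescence so fewer parasites; stock transfer was 50 nL into about 50 µL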
A1 inh: inhibitors of the anti-apoptotic protein A1, read as caspase activation | MEF A1-2A-BIM cells, Caspase-Glo 3/7 luminescence, 3 h; percent of clofoctol response, vehicle zero | caspase activation, % (test concentration not listed) | hit rate 0.066% among 330,000 | AID 2462;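 active means over half of replicate activation scores above 10%, or exactly half above 10 with the replicate mean above 10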;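 further: wells of about 30 µL received 50 nL stock; many hits fall short of the cut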
Beta2AR agonist: activates human beta-2 adrenergic receptor causing internalization | P07550 | Am2.2-beta2AR cells, FAP receptor internalization, flow cytometry; reference of the scale not given here | response, % (no concentration beside the values) | hit rate 0.43% among 340,000 | AID 504454;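 active means response above a set limit, near 3 SD of response in nonfluorescent compounds, cut at about 42% in these data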;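 further: stock transfer was 100 nL into about 11 µL; a reference agonist was the positive control; negative values mostly stem from fluorescent compounds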
Target sequence (P07550 whole entry, looked up): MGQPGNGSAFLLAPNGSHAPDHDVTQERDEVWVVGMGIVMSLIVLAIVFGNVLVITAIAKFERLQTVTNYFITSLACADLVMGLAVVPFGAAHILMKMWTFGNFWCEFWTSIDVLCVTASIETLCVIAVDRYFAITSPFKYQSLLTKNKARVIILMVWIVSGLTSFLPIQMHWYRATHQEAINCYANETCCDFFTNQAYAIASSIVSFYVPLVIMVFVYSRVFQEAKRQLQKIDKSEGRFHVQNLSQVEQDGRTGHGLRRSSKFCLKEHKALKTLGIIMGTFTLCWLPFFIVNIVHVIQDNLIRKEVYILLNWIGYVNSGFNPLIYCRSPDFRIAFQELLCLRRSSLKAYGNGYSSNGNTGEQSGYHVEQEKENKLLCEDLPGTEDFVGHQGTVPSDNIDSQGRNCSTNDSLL
Ecoli rRNA inh OD600: second read-out of Ecoli rRNA inh, no call of its own (marks repeat the call); OD600 change, %; measured here: OD600 growth;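 optical density of the mix in the first replicate; 0 = DMSO median and -100 = no signal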
Ecoli rRNA inh RFP: further read-out of Ecoli rRNA inh, marked with its call; RFP signal change, %; measured here: RFP humanized mutant strains;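 first replicate; 0 = DMSO median and -100 = no signal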
The depositor's hits bear a star; nt = no result given. Not all compounds are listed (hit frequency here may not be typical).

Structure	LANA-H2B inh	Calb FLC	Ecoli rRNA inh	Ecoli rRNA inh OD600	Ecoli rRNA inh RFP	ALR inh	Beta cell apopt	T cruzi repl	A1 inh	Beta2AR agonist
N#CC1=C(N)Oc2cc3ccccc3cc2C1c1cccnc1 (stereo unspecified)	1.4	4	nt	nt	nt	-18	-2	0	0.4	-1
Cc1nc2sc(C(c3cccs3)N3CCN(C(=O)c4ccco4)CC3)c(O)n2n1 (stereo unspecified)	6.9	0	-7	0	1.6	-5	-4	-9	0.2	-4
C=C(C)Cn1c(SCC(=O)O)nnc1-c1ccc(OC)cc1	1.0	-5	nt	nt	nt	8	-8	2	0.5	7
Cc1cccc(C)c1Nc1ncnc2ccccc12	-4.0	-1	-34*	-4.1*	-7.5*	-2	nt	-3	-0.7	-4
N#C/C(=C/c1ccc(Sc2nc3ccccc3[nH]2)o1)c1ccccc1F	-0.5	17	nt	nt	nt	-10	1	-19	1.2	17
C/C(N)=C(/C#N)C(=O)COC(=O)c1ccccc1C(=O)c1ccc(C)cc1	2.7	-10	-21*	-16*	2.1*	10	-6	-10	1.7	1
CCN(C1CCCCC1)S(=O)(=O)c1cc(C)ccc1OC	-0.3	15	nt	nt	nt	-7	-4	-11	1.0	-11
CNC(=S)N/N=C/c1ccc(N(C)C)cc1	-3.1	-6	1	-1	0.0	99*	1	-43	-1.9	0
Cc1c(NC(=O)c2ccc(S(=O)(=O)N(C)C)cc2)cccc1-n1cnnn1	1.3	nt	1	5	-2.5	nt	-3	nt	-0.9	1
COc1ccccc1-c1cc(C(=O)NCc2ccc(F)cc2)no1	-3.2	-30	-42	-54	-18	-5	1	-1	0.0	-10
C#CCOc1ccc2c3c(c(=O)oc2c1)CCCC3	-2.4	7	3	-1	3.5	-3	0	9	0.2	-5
CC(=O)Nc1ccc2c(c1)CCCN2C(=O)c1ccccc1	-2.7	12	nt	nt	nt	-3	-1	-5	0.8	-10
Cc1cccc(CCNS(=O)(=O)c2cnc[nH]2)c1	1.7	-8	5	2	-9.6	-8	-3	-10	-0.1	2
CC(C)c1onc(C(=O)N2CCN(c3ccc(F)cc3)CC2)c1[N+](=O)[O-]	1.3	-1	nt	nt	nt	15	-2	-16	-0.9	4
COC(=O)CNC(=O)C12CC3(C)CC(C)(CC(C)(C3)C1)C2	3.7	1	nt	nt	nt	7	-5	-12	-0.3	-3
CC(C)(C)c1ccc(S(=O)(=O)N(CCCN2CCOCC2)Cc2cccs2)cc1	2.9	-3	nt	nt	nt	-8	6	31	0.8	11
Cc1c(N/N=C(\C#N)C(=O)c2ccc(Cl)cc2)c(=O)n(-c2ccccc2)n1C	1.8	17	nt	nt	nt	nt	76*	-5	0.1	-3
CC1(C(=O)OCC(=O)NC(=O)c2ccccc2)CC1(Cl)Cl (stereo unspecified)	3.0	1	-1	7	-2.9	nt	-4	-12	0.0	4
COc1cccc(C2c3[nH]c4ccccc4c3CCN2Cc2cnc(C)s2)c1OC (stereo unspecified)	-8.1	-1	13	7	5.9	-1	-3	34	0.0	2
CCCS(=O)(=O)c1ccc(COC(=O)c2cccc(NC(=O)C(C)C)c2)cc1	-3.2	-30	-39*	-28*	-2.5*	-12	2	3	1.0	16
CCOC(=O)c1cccc(NC(=O)COC)c1	3.7	-4	nt	nt	nt	13	-1	-23	-0.2	-1
Cc1cc(C)cc(Nc2nc3ccc(C)cc3n3cnnc23)c1	1.5	1	5	3	-3.1	-8	7	0	0.9	-4
Cc1ccc2c(c1)OC(c1ccc3c(c1)OCCO3)CC2=O (stereo unspecified)	-7.0	-7	-39	-43	-12	1	-5	-6	0.3	20
CCOC(=O)c1ccccc1NC(=O)CSc1nc2ccccc2n1CC(=O)N1CCCC1	-1.3	-2	nt	nt	nt	-2	-13	14	0.4	7
CC(=O)c1cccc(NC(=O)c2ccc(NC(=O)CC3SC(N4CCCCC4)=NC3=O)cc2)c1 (stereo unspecified)	-6.0	2	-7	5	4.1	5	2	-13	-0.6	6
O=C1CCCN1CCCNc1ccc2nnc(CCC(=O)N3CCN(c4ccc(F)cc4)CC3)n2n1	-2.9	5	2	9	-2.4	11	-3	-5	-0.1	4
CCCN(CCC)C(=O)CSc1nc2n[nH]c(C)c2c(=N)n1-c1ccc(OCC)cc1	-2.6	9	nt	nt	nt	-12	17	nt	-1.0	-6
CCOc1ccccc1C(=O)NCC(=O)Nc1ccc(-c2ccccc2)cc1	0.3	-7	3	6	-2.7	-15	-2	4	-0.2	0
CCCCN(CCCC)S(=O)(=O)c1ccc(C(=O)Nc2nnc(COC)o2)cc1	-0.1	88*	nt	nt	nt	-5	6	15	0.0	-6
NC(=O)c1c(NC(=O)COC(=O)CSc2nnc(-c3ccc(Cl)cc3)o2)sc2c1CCC2	4.3	1	nt	nt	nt	45	-4	-9	0.4	-4
O=C(CCN=C1NS(=O)(=O)c2ccccc21)OCc1nnc(-c2ccccc2)o1	-1.2	3	4	4	-0.9	2	8	-15	-0.6	4
CCOC(=O)/C(=C/C=C1\Sc2ccccc2N1CC)C(C)=O	-7.2	-5	nt	nt	nt	88*	-1	19	-0.9	-9
CCc1nc2nc(C)c(NS(=O)(=O)c3ccc4c(c3)CCCC4)c(=O)n2[nH]1	4.2	0	-3	1	-0.8	25	0	-4	0.6	2
CN(C)c1ccc(C(=O)c2ccc(O)cc2O)cc1	8.4	3	nt	nt	nt	30	5	-6	-5.3	1
Cc1ccc(CSCCNC(=O)c2ccc(Cl)c(S(=O)(=O)N3CCOCC3)c2)cc1	-1.1	25	nt	nt	nt	-2	1	0	0.3	4
CSCCC(NC(=O)c1ccc(C(C)(C)C)cc1)C(=O)O (stereo unspecified)	1.3	0	9	4	-1.8	-4	-1	0	-0.1	2
COC(=O)CSc1nc(C)c(C)c(C)c1C(N)=O	3.6	-9	12	-6	-3.9	-14	nt	30	0.0	-6
O=C(C1CCC1)N1CCN(c2ccc(Cl)cc2)CC1	-0.6	6	3	-2	-2.7	93*	-5	1	0.5	-3
CCOc1cccc(C(=O)Nc2ccc(N3CCN(S(C)(=O)=O)CC3)cc2)c1	-2.2	0	nt	nt	nt	-3	1	-1	-0.8	-3
CCC(C)c1ccccc1NC(=O)COC(=O)CCc1cc(OC)c(OC)c(OC)c1 (stereo unspecified)	-0.6	-19	nt	nt	nt	1	-2	1	0.4	1
C=CCn1c(=S)[nH]c2cc(C(=O)NCCc3ccc(S(N)(=O)=O)cc3)ccc2c1=O	2.8	nt	12	14	4.1	-11	0	nt	1.1	1
O=C(Nc1ccc(Oc2ccccc2)nc1)C1CCN(Cc2ccco2)CC1	1.2	3	19	13	3.9	-13	2	0	0.0	-2
Cn1c(SCc2ccc(Br)cc2)nc2ccccc2c1=O	-0.2	7	6	12	0.1	-1	28	28	-0.2	4
Cc1cc(OCC(=O)N2CCc3ccccc3C2)c(C)cc1Br	-2.9	22	-27	-46	4.8	-7	-9	14	0.9	-11
Cn1cccc1C(=O)NC(=O)COC(=O)c1ccc(S(C)(=O)=O)cc1	0.9	nt	7	10	0.0	-11	0	nt	3.6	-4
COc1ccc(C2CC(=O)Nc3sc(=N)c4c(N)c(C#N)c(N)nc4c32)cc1OC (stereo unspecified)	-1.6	2	nt	nt	nt	nt	13	1	-0.1	-4
COC(CNC(=O)c1ccc(CS(=O)(=O)c2c(Cl)cccc2Cl)o1)OC	-4.2	-2	-1	12	-1.5	nt	0	-6	1.9	-3
COc1ccc(Oc2cc(Cl)nc(N)n2)cc1	0.8	-19	-7	0	-3.5	-5	-2	-5	-0.8	-8
COc1ccc(C2CC(C(F)(F)F)n3nc(C(=O)N(C)Cc4cn(C)nc4C)c(Cl)c3N2)cc1 (stereo unspecified)	0.7	5	nt	nt	nt	-24	-3	-14	0.1	1
O=C(OCc1nnc(-c2ccccc2)o1)c1ccccc1	-1.9	7	nt	nt	nt	1	-3	-9	-5.0	-2
Cc1ccccc1OCC(=O)NNC(=S)NC(=O)c1ccco1	-3.7	-2	nt	nt	nt	98*	6	-39	0.0	0
CC(=O)c1cc(NC(=O)c2cccc(C(F)(F)F)c2)c(=O)oc1/C=C/N(C)C	1.4	0	nt	nt	nt	-1	3	11	-0.6	-8
COc1ccc(-c2nnc(SCc3ccc(C(=O)O)cc3)n2N)cc1	2.7	-23	2	-1	4.2	-21	-7	-4	-0.6	-5
CCOc1ccc(OCCn2c(S(=O)(=O)O)nc3c(N)ncnc32)cc1	-0.5	9	nt	nt	nt	-18	0	-3	0.6	8
COC(=O)C1=C(C)NC(=O)NC1c1ccc([N+](=O)[O-])o1 (stereo unspecified)	-1.9	5	nt	nt	nt	-21	-2	33	1.4	6
CCOc1ccc(-n2c(C)nnc2SCC(=O)N(CC)CC)cc1	-0.5	-9	nt	nt	nt	-7	-4	1	-0.2	-6
COCCN(C(=O)COC(=O)Cc1ccc(Cl)cc1Cl)c1c(N)n(Cc2ccccc2)c(=O)[nH]c1=O	-3.3	-5	2	2	-2.0	4	-7	3	1.5	-12
Cc1ccc(NC(=O)COC(=O)/C=C/c2ccc(Br)o2)cc1S(=O)(=O)N(C)C	0.9	-22	-9	-15	2.4	2	-2	-18	0.5	-1
Cc1ccc(S(=O)(=O)N2CCC(=O)N(CCOCc3ccc(C(F)(F)F)cc3)CC2)cc1	4.9	4	-32	-58	-6.7	-5	47	-19	-0.8	-2
CCN1c2ccc(S(=O)(=O)N3CCOCC3)cc2N(Cc2ccc(OC)cc2)C1C (stereo unspecified)	-1.8	-14	10	6	-4.2	-7	1	-12	-0.4	-11
COc1cccc(CNC(=O)C2CCN(Cc3cnn(-c4ccccc4)c3-n3cccc3)CC2)c1	-5.4	26	nt	nt	nt	-3	-4	20	-0.2	-5
